NS1 inh – blocks influenza NS1 protein function | S. cerevisiae slowed by influenza A NS1, growth recovery by OD600 | Potency, µM (highest dose often 46.1 µM), without a hit: top-dose activity, positive = more growth | 270,000 compounds, 0.4% hits; active means well fitted rising curve with a large enough effect; inconclusive means small, poorly fitted or top-dose-only effect; inactive means no such curve, though single readings can be large or run the other way; note: nearly all actives have a fitted effect of over 50% in size
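A cell-based growth assay was used: compounds that relieve NS1-induced slow growth of budding yeast raise OD600. Assay medium was yeast nitrogen base with ammonium sulphate and -URA supplement, pH 6.0, with 2% galactose.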
Cruzain Triton – inhibitors of Trypanosoma cruzi cruzain with detergent | purified cruzain, Z-FR-AMC fluorescence, 0.01% Triton | Potency, µM, inactives show max response, negative = inhibition, actives largely listed as inhibitors | 200,000 compounds, 0.43% hits | AID 1478;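 note: plate controls were neutral wells for no effect and buffer without enzyme for full effect; nearly all actives have a fitted effect of over 40% in size; top concentration of the series not given in the record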
Target sequence (P25779 123-467 limits assumed): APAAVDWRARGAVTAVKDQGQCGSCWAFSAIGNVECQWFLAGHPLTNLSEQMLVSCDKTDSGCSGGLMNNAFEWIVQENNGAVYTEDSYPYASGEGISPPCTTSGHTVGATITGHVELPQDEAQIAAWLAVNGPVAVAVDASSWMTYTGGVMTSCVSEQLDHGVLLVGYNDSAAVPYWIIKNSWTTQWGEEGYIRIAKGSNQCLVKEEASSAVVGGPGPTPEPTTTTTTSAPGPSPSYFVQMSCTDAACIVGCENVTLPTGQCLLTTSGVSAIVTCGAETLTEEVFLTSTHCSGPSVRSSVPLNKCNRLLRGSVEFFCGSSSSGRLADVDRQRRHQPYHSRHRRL
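Purified cruzain (1.5 nM final) was preincubated with compounds for 15 min at room temperature in 100 mM sodium acetate pH 5.5, 5 mM DTT, 0.01% Triton X-100. Reaction started with 2 uM Z-FR-AMC; AMC fluorescence change over 60 s gave activity.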
SARS PLpro yeast – inhibitors of SARS-CoV papain-like protease in yeast. S. cerevisiae expressing SARS-CoV PLpro, growth rescue; control for the full effect not named in the record. Potency, µM (highest dose often 32.9 µM), without a hit: top-dose activity, positive = growth rescue. 330,000 compounds, 0.19% hits; active means well fitted rising curve with a large enough effect; inconclusive means small, poorly fitted or top-dose-only effect; inactive means no such curve, though single readings can be large or run the other way; note: 0% is about no effect; nearly all actives have a fitted effect of over 55% in size; growth read by luminescence after 48 h
2A StopGo – FMDV 2A StopGo reporter, luciferase signal; 410,000 compounds, 1.2% hits; human cells with a luciferase reporter of 2A StopGo recoding; control for the full effect not named in the record; Potency, µM (series often up to 57.9 µM), without a hit: top-dose signal change, negative = less light; active = well fitted falling curve with a large enough effect; inconclusive = small, poorly fitted or top-dose-only effect; inactive = no such curve, though single readings can be large or run the other way; tested in HEK293T cells; note: % is set by controls: 0 for no effect and ±100 for the full control effect; nearly all actives have a fitted effect of over 45% in size; luciferase light after 4 h
LASV entry inh – Lassa virus entry inhibition | 300,000 compounds, 1.2% hits | Lassa virus pseudotype entry inhibition, cell reporter; control for the full effect not named in the record | Potency, µM (doses to about 37.9 µM), inactives show at the highest dose activity change, negative = inhibition, actives largely listed as inhibitors; active means well fitted inhibition curve with a large enough effect; inconclusive means small, poorly fitted or top-dose-only effect, or effect the other way; inactive means flat fitted curve, though single readings scatter; tested in HEK293 cells; note: % is set by controls: 0 for no effect and ±100 for the full control effect; nearly all actives have a fitted effect of over 50% in size; luciferase read-out
Marburg entry inh – Marburg virus entry inhibition; Potency, µM (top dose mostly 37.8 µM), for inactives: at the top dose activity change, negative = inhibition, most hits filed as inhibitors; AID 540276; Marburg virus pseudotyped entry inhibition, cell reporter; control for the full effect not named in the record; about a third of the inactives were read at about 46 µM; 300,000 compounds, 1.8% hits; active = well fitted inhibition curve with a large enough effect; inconclusive = small, poorly fitted or top-dose-only effect, or effect the other way; inactive = flat fitted curve, though single readings scatter; tested in HEK293 cells; about a fifth of its hits are not listed in these tables; note: % is set by controls: 0 for no effect and ±100 for the full control effect; luciferase read-out
RE007 growth inh – less growth of the S. pombe RE007 Vpr strain | S. pombe RE007 Vpr strain, BacTiter-Glo ATP luminescence, 24 h; control for the full effect not named in the record | Potency, µM (series often up to 92.2 µM), for inactives: at the highest dose activity change, negative = less growth | 360,000 compounds, 0.21% hits | AID 651644; active = well fitted falling curve with a large enough effect; inconclusive = small, poorly fitted or top-dose-only effect; inactive = no such curve, though single readings can be large or run the other way;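 note: % is set by controls: 0 for no effect and ±100 for the full control effect; nearly all actives have a fitted effect of over 50% in size; the assay follows cell death caused by Vpr and the record does not say whether a fall means rescue or toxicity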
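Fission yeast strain RE007, carrying one chromosomally integrated HIV-1 vpr copy, was seeded at OD 0.01 in PMG+AL medium with 23 nL pinned compound. After 24 h at 30 °C and 99% humidity, viability was read by BacTiter-Glo luminescence.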
Cruzain inh noDet – blocks cruzain activity in detergent-free assay. P25779. purified cruzain, Z-FR-AMC fluorescence, no detergent. Potency, µM, inactives show max response, negative = inhibition, hits mostly inhibitors. 200,000 compounds, 2.3% hits;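 note: plate controls were enzyme without inhibitor for no effect and buffer without enzyme for full effect; nearly all actives have a fitted effect of over 40% in size; top concentration of the series not given in the record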
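Purified cruzain at 1.5 nM, pre-incubated 15 min with compound at room temperature in 100 mM sodium acetate pH 5.5, 5 mM DTT, 0.00005% Triton X-100. Reaction started with 2 uM Z-FR-AMC; AMC fluorescence increase over 60 s gives rate.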
The depositor's hits bear a star; ? = inconclusive; . = no result given; [ ] = dose if it differs, or a comment. Unless noted, calls come from the whole dose curve; as a rule, active = well fitted curve in the direction sought with a large enough effect; inconclusive = small, poorly fitted or top-dose-only effect, or another doubt; inactive = no such curve, though single readings can be large; an effect the other way counts as inactive or inconclusive. Potency is the fitted concentration of half-maximal effect.

SMILES | NS1 inh | Cruzain Triton | SARS PLpro yeast | 2A StopGo | LASV entry inh | Marburg entry inh | RE007 growth inh | Cruzain inh noDet
CCc1cc2cc(C(=O)Nc3ccccc3F)sc2s1 | 4% | -11% | -3% | 40%[activator] | -7% | ? | 3% | 0%
Cc1[nH]n(C2=NCCS2)c(=O)c1N=Nc1ccccc1 | 5% | . | 1% | 33%[activator] | 0% | 10%[46.1 µM] | -16% | .
O=C(O)C1=C[C@@H](c2csc3ccccc23)C[C@@H](OCc2ccc(CO)cc2)O1 | 5% | . | -2% | -1% | . | . | -13% | .
CCCN1CCC(=O)N([C@H](COc2ccccc2)c2ccccc2)CC1 | -3% | . | 5% | -9% | . | . | -9% | .
CC(C)c1ccc(NC(=O)[C@H](Cc2c[nH]c3ccccc23)NC(=O)[C@@H]2Cc3ccccc3CN2)cc1 | 17% | . | 0% | 3% | . | . | -1% | .
O=C(COc1cc2oc(=O)c3c(c2cc1Cl)CCC3)NCCCn1ccnc1 | 5% | . | 6% | -10% | . | . | -10% | .
COC(=O)CSc1ncnc2c(C)csc12 | 0% | . | 0% | 15% | -2%[46.1 µM] | 2%[46.1 µM] | -4% | .
COc1c(N)c2c(c([N+](=O)[O-])c1OC)C(=O)OC2 | . | . | . | -23% | 25% | 1% | 5% | .
Cc1ccc(NC(=O)CSCC(=O)NNC(=O)c2ccoc2C)cc1 | . | . | 1% | 8% | 2% | -6% | -8% | .
COc1ccc(CCn2c(=N)c(C(=O)NCc3ccco3)cc3c(=O)n4cccc(C)c4nc32)cc1 | ? | -1.9% | -2% | -21% | -1% | ? | -6% | -8%
CCCCCCCCCCCCN1C(=O)CSC1c1cccnc1 (stereo unspecified) | 4% | . | -1% | ? | ? | ? | -3% | .
O=C(CCC(=O)c1ccc(Br)cc1)Nc1ccc(F)cc1 | -5% | . | -3% | -9% | -7%[46.1 µM] | 5%[46.1 µM] | 12% | .
Cc1cc(/C=C2/NC(=O)N(Cc3ccccc3F)C2=O)c(C)n1C | 23% | -5.6% | -10% | -2% | ? | ? | -6% | 25µM*
Cn1c(Cn2c(=O)sc3ccccc32)nnc1SCC(=O)N1CCN(c2ccccc2)CC1 | -3% | -2.6% | 17% | -13% | . | . | -6% | 3%
Cc1ccc(C(=O)Nc2ccc(CN3CCCCC3)cc2)c(C)c1 | 3% | . | -1% | 11% | -6% | -23%[46.1 µM] | -16% | .
COC(=O)CC1C(=O)NCCN1C(=O)c1ccc([N+](=O)[O-])cc1 (stereo unspecified) | 5% | . | -1% | 0% | 15%[46.1 µM] | 16%[46.1 µM] | 10% | .
NC(=O)CC(NC(=O)Cc1ccc(Cl)cc1)c1ccc(NCCOc2ccccc2)c([N+](=O)[O-])c1 (stereo unspecified) | 9% | . | -4% | -23% | . | . | 24% | .
COc1ccccc1NC(=O)Nc1nc(CC(=O)Nc2ccc(N(C)C)cc2)cs1 | . | . | -4% | 33%[activator] | 6% | -28% | -4% | .
CCCN1CCN(CCCNC(=O)c2ccc3c(c2)sc2nc(-c4ccc(C)cc4)cn23)CC1 | . | -2.2% | . | 5% | 3%[46.1 µM] | . | . | 1%
Cc1c2ccncc2cc2c1[nH]c1ccccc12 | . | . | . | 4% | -29%[46.1 µM] | ? | ? | .
c1cncc(Cc2cc3ccccc3[nH]2)c1 | 4% | -3.8% | -10% | 9% | -15% | ? | 5% | -10%
COc1ccc(CCNC(=O)CSc2nn3c(=O)c(C)nnc3s2)cc1OC | 4% | . | -3% | -19% | . | . | 24% | .
COc1ccc(/C=C(/NC(=O)c2ccc([N+](=O)[O-])cc2)C(=O)NCCCN(C)C)cc1 | . | . | -2% | -16% | -30% | -22%[46.1 µM] | -16% | .
CCOC(=O)c1cc(S(=O)(=O)Nc2ccc(OC)c(Cl)c2)[nH]n1 | . | -3.3% | . | 0% | -6%[46.1 µM] | . | . | 2%
Cc1nc2c(c(=O)n1CCC(C)C)c1nc3ccccc3nc1n2Cc1ccc2c(c1)OCO2 | -39% | -4.5% | 7% | -28% | 7% | 7% | -2% | 8%

Two entries picked at random from the list so far:
SMILES | NS1 inh | Cruzain Triton | SARS PLpro yeast | 2A StopGo | LASV entry inh | Marburg entry inh | RE007 growth inh | Cruzain inh noDet
CCCCCCCCCCCCN1C(=O)CSC1c1cccnc1 (stereo unspecified) | 4% | . | -1% | ? | ? | ? | -3% | .
CCCN1CCN(CCCNC(=O)c2ccc3c(c2)sc2nc(-c4ccc(C)cc4)cn23)CC1 | . | -2.2% | . | 5% | 3%[46.1 µM] | . | . | 1%

(listing goes on)
SMILES | NS1 inh | Cruzain Triton | SARS PLpro yeast | 2A StopGo | LASV entry inh | Marburg entry inh | RE007 growth inh | Cruzain inh noDet
COc1ccccc1N1CCN(C(=O)C(C)N(c2ccc(C)cc2)S(C)(=O)=O)CC1 (stereo unspecified) | -36% | 3.4% | 2% | ? | 3% | -16%[46.1 µM] | 3% | ?
O=C(COc1ccccc1Br)Nc1ccccc1C(F)(F)F | -5% | . | 0% | 31%[activator] | . | . | -27% | .
CCN(CC)CCCNC(=O)C1CCN(c2ncnc3c2sc2cccc(F)c23)CC1 | 7% | . | 0% | 3% | . | . | -3% | .
CCOc1c(Br)cc(/C=C2/SC(=O)N(CC(=O)N3CCCC3)C2=O)cc1OC | 14% | 1.6% | -8% | -9% | 0% | 5% | -6% | 2%
O=C(CCSc1ccccc1)NCc1cccnc1 | 4% | 3.2% | 2% | 7% | 4% | 14% | 9% | 2%
C/C=C/Cn1c(SCCCc2ccccc2)nc2c1c(=O)[nH]c(=O)n2C | -74% | -7.0% | -3% | -18% | ? | -34% | 11% | -16%
O=c1c2sc3ccccc3c2n(Cc2ccc(Cl)cc2)c(=O)n1Cc1ccco1 | . | -9.4% | . | -5% | 20%[46.1 µM] | -10%[46.1 µM] | . | -14%
COc1cccc(C=NNc2nc3ccccc3s2)c1OC | . | . | . | 0% | -19%[46.1 µM] | ? | 13% | .
COC(=O)c1cccc(NC(=O)CCN2C(=O)C3CC=CCC3C2=O)c1 (stereo unspecified) | . | . | 0% | -15% | 4% | 7% | 8% | .
O=C(CNC(=O)c1ccccc1)OCc1cc(=O)n2cc(Br)ccc2n1 | 4% | -12% | 15% | 3% | 0% | 0% | -6% | -13%
Cn1c(N)c(C(=O)CSc2nnc(-c3ccccc3F)n2C2CC2)c(=O)n(C)c1=O | . | . | -1% | -20% | -8% | 3%[46.1 µM] | 16% | .
CC(NC(=O)Nc1ccc(Cl)cc1)C(c1cccs1)N1CCOCC1 (stereo unspecified) | -3% | -2.3% | 1% | 0% | . | . | -7% | -13%
COc1ccc(NC(=O)N2CCN(c3nc(-c4cccc(OC)c4)cs3)CC2)cc1 | -11% | -9.0% | -31% | 20µM* | ? | 23µM* | 4% | ?
COc1ccc(/C=C/C(=O)c2cc(F)ccc2OC(=O)c2ccc(OC)c(OC)c2)cc1OC | ? | -12% | 10% | ? | ? | ? | 6% | ?
Cc1ccc(Cn2nc3c(cc2=O)CCc2ccccc2-3)cc1 | 5% | . | -1% | 35%[activator] | . | . | 17% | .
Cc1cccc(N2CCN(C(=O)CCn3c(=O)c4cccn4c4cccnc43)CC2)c1C | . | -0.9% | . | -18% | 10%[46.1 µM] | . | . | -2%
Cc1[nH]c2ccccc2c1C1=CC(=O)C=CC1=O | . | . | . | ? | ? | ? | 25µM* | .
Cc1cc(C(=O)NC2CC(C)(C)Cc3c2cnn3-c2cccc(F)c2)n(C)n1 (stereo unspecified) | -4% | . | 0% | -16% | ? | ? | 4% | .
CC(=O)c1cnc2ncnn2c1C | 10% | -0.6% | 0% | 4% | 2% | 3% | 34% | -3%
Cc1ccc(NC(=O)CSc2nnc(CNC(=O)C34CC5CC(CC(C5)C3)C4)n2-c2ccc(F)cc2)cc1 | 0% | -4.2% | 4% | ? | ? | -27% | -5% | ?
Cc1ccc(Cl)c2c(N=Nc3ccccc3)c(O)[nH]c12 | 5% | . | -1% | 58%[activator] | . | . | 9% | .
COP(=O)(OC)C(Nc1ccc([N+](=O)[O-])cc1)c1ccccc1 (stereo unspecified) | -3% | . | 0% | -21% | ? | 26% | 6% | .
COc1ccc(C(=O)O)cc1NS(=O)(=O)c1cccc2nsnc12 | 1% | -2.1% | 5% | -14% | -12% | 16% | -4% | -26%

Gathered by group, the compounds so far with a furan ring, fused or not (3)
SMILES | NS1 inh | Cruzain Triton | SARS PLpro yeast | 2A StopGo | LASV entry inh | Marburg entry inh | RE007 growth inh | Cruzain inh noDet
Cc1ccc(NC(=O)CSCC(=O)NNC(=O)c2ccoc2C)cc1 | . | . | 1% | 8% | 2% | -6% | -8% | .
COc1ccc(CCn2c(=N)c(C(=O)NCc3ccco3)cc3c(=O)n4cccc(C)c4nc32)cc1 | ? | -1.9% | -2% | -21% | -1% | ? | -6% | -8%
O=c1c2sc3ccccc3c2n(Cc2ccc(Cl)cc2)c(=O)n1Cc1ccco1 | . | -9.4% | . | -5% | 20%[46.1 µM] | -10%[46.1 µM] | . | -14%

Complete entries as entered above.
`CC(=O)c1cnc2ncnn2c1C` is listed as NS1 inh = 10%; Cruzain Triton = -0.6%; SARS PLpro yeast = 0%; 2A StopGo = 4%; LASV entry inh = 2%; Marburg entry inh = 3%; RE007 growth inh = 34%; Cruzain inh noDet = -3%
`COC(=O)c1cccc(NC(=O)CCN2C(=O)C3CC=CCC3C2=O)c1` (stereo unspecified) is listed as NS1 inh = .; Cruzain Triton = .; SARS PLpro yeast = 0%; 2A StopGo = -15%; LASV entry inh = 4%; Marburg entry inh = 7%; RE007 growth inh = 8%; Cruzain inh noDet = .

Bioassay records from PubChem.

Random draw from the library; overall some 4.7% were active at least once.
